gsp antag: antagonists of gsp mutant (McCune-Albright syndrome); gsp-mutant cells, cAMP HTRF, 30 min; control for the full effect not named in the record; 0.4% of 340,000 active; Potency, µM (top dose mostly 76.9 µM), for the others: top-dose activity change, negative = inhibition, usual class: inhibitors; active = falling curve of any shape with a large fitted effect; inconclusive = falling curve, mostly with a smaller effect; inactive = flat or rising curve; cell line not stated here;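 note: intracellular cAMP measured with PDE inhibitor Ro 20-1724 present during compound exposure; potency is the fitted concentration of half-maximal effect; % is set by controls: 0 for no effect and ±100 for the full control effect; nearly all actives have a fitted effect of over 65% in size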
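HTRF cAMP read-out (cAMP-d2 plus anti-cAMP antibody-K in lysis buffer, 30 min RT). Before lysis, cells are exposed to compounds with […] for 30 min at 37C in DPBS containing Ca/Mg, BSA and Tween 20.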
Menin MLL FP FL: menin-MLL binding inhibition, fluorescein peptide; Fluorescence polarization, fluorescein-MLL peptide displacement from menin; FP activity change, % at 61.4 µM; 290,000 tested, under 10 active; inconclusive = falling polarisation curve, or a change in total fluorescence; inactive = total fluorescence flat and polarisation flat or rising; no compound was filed as active; the % refers to the polarisation; negative = inhibition;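 note: % of control where 0% means no effect; inhibitors lower the polarisation; unlabelled MLL peptide was the positive control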
TRPML1 ag: human mucolipin-1 channel agonism; Q9GZU1; TRPML1-expressing cells, Ca2+ dye fluorescence, FDSS; host cell line not named in the record; reference of the full effect not given here; activation, % (concentration not given with the values); 0.12% of 410,000 active; AID 624414; in the data active = activation above about 50%; inconclusive = about 30% to 50%; inactive = below about 30%; note: 0% is about no effect; the text of the record puts the active cut at 80%
Target sequence (Q9GZU1 whole entry, looked up): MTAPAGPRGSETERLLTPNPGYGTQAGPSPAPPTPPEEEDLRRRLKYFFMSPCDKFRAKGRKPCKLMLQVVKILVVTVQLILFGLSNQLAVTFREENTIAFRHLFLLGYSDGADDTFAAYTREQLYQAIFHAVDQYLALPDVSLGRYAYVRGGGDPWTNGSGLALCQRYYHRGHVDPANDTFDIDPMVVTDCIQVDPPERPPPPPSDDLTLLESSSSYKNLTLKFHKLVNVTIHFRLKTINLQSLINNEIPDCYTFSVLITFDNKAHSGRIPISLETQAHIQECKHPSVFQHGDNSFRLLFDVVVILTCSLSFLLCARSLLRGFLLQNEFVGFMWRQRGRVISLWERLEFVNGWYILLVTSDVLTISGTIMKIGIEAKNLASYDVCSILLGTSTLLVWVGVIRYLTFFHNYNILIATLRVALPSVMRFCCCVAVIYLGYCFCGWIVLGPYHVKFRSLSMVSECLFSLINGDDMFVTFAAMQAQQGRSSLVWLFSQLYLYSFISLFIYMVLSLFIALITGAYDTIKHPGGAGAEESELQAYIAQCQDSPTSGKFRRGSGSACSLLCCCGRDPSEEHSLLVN
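Kinetic FDSS Ca2+ read in Tet-induced TRPML1-DL cells (ABD Ca8 dye plus quencher, 45-90 min RT loading): baseline, then compound, then 110 s agonist window; EC80 agonist 54-4 at 4uM final added afterwards for a 110 s antagonist window.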
gsp agonist: activates gsp, the McCune-Albright syndrome mutation; gsp mutant cells, cAMP HTRF, 30 min; control for the full effect not named in the record; Potency, µM (top dose mostly 76.9 µM), for the others: at the top dose activation (cAMP increase), usual class: activators; 0.13% of 340,000 active; AID 624287; active = well fitted activation curve with a large enough effect; inconclusive = small, poorly fitted or top-dose-only effect, or another doubt; inactive = no such curve, though single readings can be large or run the other way; cell line not stated here;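 note: phosphodiesterase inhibitor Ro 20-1724 added with compounds to block cAMP breakdown; potency is the fitted concentration of half-maximal effect; nearly all actives have a fitted effect of over 60% in size; about a fifth of the inactives were tested at one dose only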
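Cells stably selected in G418 were plated at 2000/well, grown 16-24 hr, then given compounds in DMSO with the PDE inhibitor […] (300 uM solution added) for 30 min at 37C; cAMP was read by HTRF.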
TRPML1 blocker: inhibitors of human TRPML1 channel; Q9GZU1; TRPML1-inducible cells, Ca2+ dye fluorescence, FDSS; hits give low values; inhibition of EC80 agonist-evoked calcium signal; activity change, negative = inhibition, % (no concentration beside the values); 0.02% of 390,000 active; in the data active means activity change below about -50%; inconclusive means about -30% to -50%; inactive means above about -30%;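 note: stimulus is agonist 54-4 at its EC80 concentration; % is set by controls: 0 for no effect and ±100 for the full control effect; compound concentration not given in the record; the text of the record puts the active cut at -80%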
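Calcium fluorescence in TRPML1-DL cells induced overnight with Tet: a 110 s read after compound pin addition, then a 110 s antagonist read after challenge with 54-4 at 4 uM final (EC80).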
ClpP mod: qHTS Assay for Activators of ClpP | purified B. subtilis ClpP, FRET peptide cleavage, 20 min | Potency, µM (top dose mostly 57.5 µM), for inactives: at the highest dose activity change, negative = active | 1.9% of 340,000 active; active = well fitted falling curve with a large enough effect; inconclusive = small, poorly fitted or top-dose-only effect; inactive = no such curve, though single readings can be large or run the other way; note: potency is the fitted concentration of half-maximal effect; the source files actives as falling curves though it sought activators and does not explain the sign; nearly all actives have a fitted effect of over 65% in size; many hits overshoot -100%
Target sequence (P80244 whole entry, looked up): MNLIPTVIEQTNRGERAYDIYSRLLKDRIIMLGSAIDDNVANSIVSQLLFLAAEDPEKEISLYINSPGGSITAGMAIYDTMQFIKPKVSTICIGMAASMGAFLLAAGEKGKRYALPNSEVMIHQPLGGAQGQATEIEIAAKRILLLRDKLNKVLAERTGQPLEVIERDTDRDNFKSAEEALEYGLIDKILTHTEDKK
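Buffer: 100 mM Tris/HCl pH8, 100 mM KCl, 0.05% low protease BSA, 2.5% glycerol, 0.01% Tween-20. ClpP 10 microg/mL final; 20 min RT; delta FRET normalized to ADEP and DMSO controls.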
Starred values were filed as active, the others as inactive; u = inconclusive; x = not tested or not shown; & = joins results of further samples; [ ] = remark or other dose.

SMILES | gsp antag | Menin MLL FP FL | TRPML1 ag | gsp agonist | TRPML1 blocker | ClpP mod
O=C1O/C(=C/c2ccccc2)N=C1c1ccccc1 | 4% | 1.9 | 0.3 | -10%[15.4 µM] | 28 | -9.2%
COc1cc(OC)c(C(=O)COc2ncnc3ccccc23)c(OC)c1 | -9% | 0.5 | -0.2 | -22% | 8 | 1.2%
Brc1ccc(CN2CCN(c3ccccn3)CC2)s1 | 5% | 0.0 | 1.0 | u | 6 | -4.3%
CCOc1ccc(N2CC(c3nc4ccccc4n3CCOc3ccc(CC)cc3)CC2=O)cc1 (stereo not drawn) | x | x | 0.7 | x | -3 | 0.3%
Cc1cc(C)n(-c2nc3ccccc3nc2Nc2ccc(C(C)C)cc2)n1 | x | x | -0.4 | x | 3 | -9.2%
Cc1c(-c2ccc(/C=N/NC(=O)C(=O)Nc3ccccc3F)o2)cccc1[N+](=O)[O-] | 6% | u | -0.4 | -4% | -2 | -0.3%
CCOC(=O)N/N=C\c1cccc(OC)c1OC/C=C/c1ccccc1 | 0% | 2.5 | 3.2 | 9%[15.4 µM] | 1 | -11%
CC(C)NS(=O)(=O)c1ccc(NC(=O)Cc2cccs2)cc1 | 21% | 0.4 | 0.1 | 7% | 5 | -2.3%
CC(=O)c1cc(-c2ccc(F)cc2)n(CCC(=O)NCc2ccccc2C)c1C | x | x | -1.2 | x | -5 | -1.3%
O=C(NCCc1ccccc1)c1ccccc1F | u | -0.8 | -0.5 | 9%[15.4 µM] | -5 | x
CCCCS(=O)(=O)c1oc(-c2cccs2)nc1S(=O)(=O)c1ccc(F)cc1 | x | x | 0.6 | x | 3 | -0.1%
O=C(NCc1ccc2c(c1)OCO2)c1ccc(CN2CCc3ccccc3C2)cc1 | 1% | 2.3 | 0.1 | -2% | 20 | -1.3%
Cc1ccc(C(=O)OCC(=O)N2C(C)CCCC2C)cc1S(=O)(=O)N1CCOCC1 (stereo not drawn) | -7% | x | 1.7 | -6%[15.4 µM] | 7 | x
COc1ccc(-c2cnnn2-c2ccc(NC(=O)c3c(F)cccc3F)cc2)cc1 | x | x | 4.6 | x | 23 | 0.2%
CCOC(=O)c1cc2nc(-c3ccco3)cc(C(F)(F)F)n2n1 | -6% | -0.1 | 0.1 | 30% | 4 | u
COc1ccc(S(=O)(=O)Cc2ccc(C(=O)N3CCN(C(=O)c4ccco4)CC3)o2)cc1 | -1% | -0.6 | -0.5 | -2% | 6 | 1.2%
Cc1cc(-c2ccc(C)c(S(=O)(=O)NCC3CCN(Cc4cccc(F)c4)CC3)c2)on1 | -3% | 0.8 | -0.6 | -37%[inhibitor] | -2 | -1.2%
Cc1coc2cc3oc(=O)c(CC(=O)N(C)CC(=O)O)c(C)c3cc12 | 15% | -2.2 | 0.2 | 23% | -2 | x
COc1ccc(NC(=O)Nc2ccc3c(c2)CCC3)cc1 | 6% | x | 0.1 | 4% | -4 | -0.1%
CC1=C(C(=O)OC(C)C)C(c2cccs2)n2ncnc2N1 (stereo not drawn) | -3% | -1.2 | 1.1 | -22% | 2 | -0.5%
CCn1cnc2c1c(=O)[nH]c(=O)n2Cc1ccccc1 | 7% | 1.0 | -1.1 | -2%[15.4 µM] | 4 | 0.7%
COc1ccc2[nH]c(=O)c(CNc3cccc(C)c3)cc2c1 | 3% | 3.4 | 1.4 | 7% | 3 | -18%
C=C(C)CSc1nc2sc3c(c2c(=O)n1-c1ccc(C)cc1)CCN(C)C3 | -30% | 31[activator] | -0.9 | -14%[15.4 µM] | 9 | 0.0%
Cc1ccc(NC(=O)CCC(=O)N/N=C/c2ccc(O)cc2O)cc1 | 3% | 1.6 | 0.6 | -18% | -7 | -7.4%
CCOC(=O)N1CCN(CC(O)c2c[nH]c3ccc(OC)cc23)CC1 (stereo not drawn) | 3% | -0.4 | -0.5 | 17%[15.4 µM] | -6 | x
Next records follow:
SMILES | gsp antag | Menin MLL FP FL | TRPML1 ag | gsp agonist | TRPML1 blocker | ClpP mod
Cc1[nH][nH]c(=O)c1C(c1c(C)[nH][nH]c1=O)c1cn(Cc2cccc3ccccc23)c2ccccc12 | 7% | 2.8 | -0.9 | -5% | 20 | 1.7%
OC(CNCC(c1ccc(Cl)cc1Cl)c1c[nH]c2ccccc12)c1ccccc1 (stereo not drawn) | 2% | 2.4 | 0.3 | -5%[15.4 µM] | 4 | x
O=[N+]([O-])c1nn(-c2ccc(Cl)cc2)n(O)c1=NCc1ccccc1 | 8% | 2.0 | 1.6 | -16% | 8 | -1.2%
CCN1C[C@@H]2[C@@H]3C(=O)N(Cc4ccccc4)C(=O)[C@@H]3[C@](CC)(C(=O)OC)N2C1=NCc1ccccc1 | 9% | x | 0.2 | x | 13 | 1.2%
CCN(CC)c1c([N+](=O)[O-])c(=O)oc2ccccc12 | 9% | 0.5 | -0.4 | -12%[15.4 µM] | 8 | -12%
O=C1c2c(Br)c(Br)c(Br)c(Br)c2C(=O)N1c1ccccn1 | -22% | 3.1 | 0.0 | 1% | 4 | 1.5%
Cc1cccc(NC(=O)CCS(=O)(=O)c2ccc3c(c2)n(C)c(=O)c(=O)n3C)c1C | x | x | -0.1 | x | -18 | -3.9%
Cn1cc(-c2csc(C(O)c3ccc(F)cc3)n2)cn1 (stereo not drawn) | x | x | 0.6 | x | -6 | 0.2%
COc1ccc(CNC(=O)Cc2c(C(=O)O)[nH]c3ccccc23)c(OC)c1 | 4% | -2.9 | 2.7 | 11% | -7 | -9.8%
COc1ccc(C2C(C(C)=O)=C(O)C(=O)N2CCO)c(OC)c1 (stereo not drawn) | -6% | 0.8 | 0.8 | -41%[inhibitor] | -6 | 1.2%
CC(C)c1cccc(O)c(=O)c1 | -18% | -1.0&3.5 | -0.5 | 1% | 11 | -3.0%
CCCCS(=O)CC(CS(=O)CCCC)OC(=O)c1ccc(C)cc1 (stereo not drawn) | 9% | 3.0 | 1.2 | -5% | 7 | -0.2%
COC(=O)C1(Cc2cc(-c3ccc(Cl)cc3)no2)CCN(C(=O)OC(C)(C)C)CC1 | -7% | 5.6 | -0.4 | x | 6 | -2.4%
COc1cc(/C=N/NC(=O)Nc2ccccc2)ccc1OC(C)=O | 13% | 1.0 | -0.2 | -21% | 29 | -27%
c1ccc(C2CC(c3cccs3)=NN2c2ccccc2)cc1 (stereo not drawn) | -5% | u | 1.4 | u | -14 | 4.2%
Cc1cccc(S(=O)(=O)N2CCn3cccc3C2C)c1 (stereo not drawn) | 3% | x | 5.9 | -77%[inhibitor] | 22 | 0.0%
CC=C1COC(C(=O)NCCOCCO)(C(F)(F)F)C=C1C=C(C)C (stereo not drawn) | x | 0.6 | 0.4 | x | -11 | x
CC(=O)Nc1sc(C)c(C)c1C(=O)OC(C)C | 19% | 3.1 | 1.7 | -13% | 13 | -5.9%
CCCn1cc(SCC(=O)NCC2CCCO2)c2ccccc21 (stereo not drawn) | -3% | 5.0 | -0.3 | -38%[inhibitor] | 3 | -4.8%
CC(=NN1CC(=O)NC1=O)c1ccc([N+](=O)[O-])o1 | 0% | x | -0.4 | u | -2 | x
COc1ccc2c(c1)sc(=NC(=O)CS(=O)(=O)c1ccc(F)cc1)n2C | -21% | x | -0.2 | -3% | -6 | -7.8%
O=C(COC(=O)c1ccco1)NCc1ccc(Cl)cc1 | 7% | 1.0 | 0.3 | u | -1 | -1.0%
O=C(Cn1nc(C(F)(F)F)cc1C1CC1)NCc1ccccc1F | 13% | 1.0 | -0.1 | 25% | -16 | 1.5%
O=C(CNC(=O)[C@@H]1Cc2ccccc2CN1)Nc1ccc2c(c1)OCO2 | -1% | x | -0.3 | u | -10 | -2.5%
COc1ccc(NC(=O)CCCC(=O)OCC(=O)c2cccc(OC)c2)cc1 | -2% | x | 1.1 | 26% | 4 | x

Arranged by length of the SMILES (high to low): four of the compounds above
SMILES | gsp antag | Menin MLL FP FL | TRPML1 ag | gsp agonist | TRPML1 blocker | ClpP mod
Cc1cccc(NC(=O)CCS(=O)(=O)c2ccc3c(c2)n(C)c(=O)c(=O)n3C)c1C | x | x | -0.1 | x | -18 | -3.9%
COc1ccc(NC(=O)CCCC(=O)OCC(=O)c2cccc(OC)c2)cc1 | -2% | x | 1.1 | 26% | 4 | x
CC(=NN1CC(=O)NC1=O)c1ccc([N+](=O)[O-])o1 | 0% | x | -0.4 | u | -2 | x
c1ccc(C2CC(c3cccs3)=NN2c2ccccc2)cc1 (stereo not drawn) | -5% | u | 1.4 | u | -14 | 4.2%

The listing continues:
SMILES | gsp antag | Menin MLL FP FL | TRPML1 ag | gsp agonist | TRPML1 blocker | ClpP mod
O=C(NC1=NCCS1)c1cccc(Br)c1 | -3% | x | 2.2 | -4%[15.4 µM] | 9 | x
CC(C)=CCc1c(O)ccc2c1OC(c1ccc(O)c(O)c1)CC2=O (stereo not drawn) | 2% | 9.2 | x | x | x | -28%
Cc1ccc(OCc2cc(C(=O)N3CCCC3)no2)cn1 | -9% | x | -0.3 | 7% | 8 | -2.3%
O=C(c1ccc2c(=O)n(Cc3ccccc3)c(=S)[nH]c2c1)N1CCCC1 | -22% | 2.7 | 0.0 | 16% | 12 | x
CC1CC(C)CN(S(=O)(=O)N2CCCC(C(=O)NCCCN3CCOCC3)C2)C1 (stereo not drawn) | 4% | -0.7 | -0.3 | -30% | 17 | 0.3%
Cc1cc(C)c2nc(N3CCCC(C(=O)NCc4cccc(Cl)c4)C3)sc2c1 (stereo not drawn) | x | x | 1.0 | x | 0 | -3.4%
Cc1ccc(NC(=O)CCCCCN2C(=O)[C@@H]3Cc4ccccc4CN3C2=O)c(Cl)c1 | u | x | 1.1 | u | 14 | -3.1%
CCC(C)n1ncn(-c2ccc(N3CCN(c4ccc(O)cc4)CC3)cc2)c1=O (stereo not drawn) | -2% | 1.4 | -0.4 | -21% | -9 | -1.0%
Cc1ccc(CN(C(=O)COc2cccc(C)c2C)C2CCS(=O)(=O)C2)o1 (stereo not drawn) | 0% | x | 0.2 | -18% | -3 | 2.4%
O=C(NCCCc1ccccc1)c1ccc(F)cc1 | -7% | -0.1 | 0.5 | 0%[15.4 µM] | -14 | -3.9%
CCc1n[nH]c(=S)n1/N=C/c1ccccc1OCc1ccc(Cl)cc1 | 0% | -2.1 | 0.1 | -38%[inhibitor] | 4 | x
O=C1CC(C(=O)N2CCN(c3ccc(F)cc3)CC2)CN1CCc1ccccc1 (stereo not drawn) | -1% | 1.6 | -0.7 | u | -6 | -1.3%
Cc1ccc(NC(=O)Cn2c(=O)n(CCC(=O)NCc3ccccc3Cl)c(=O)c3ccccc32)c(C)c1 | x | x | -0.1 | x | 25 | -2.1%
N#Cc1cccc(OCC(=O)NC(=O)NCc2ccccc2)c1 | x | 6.1 | 0.0 | 3%[15.4 µM] | 24 | x
S=c1[nH]nc(-c2ccc(Cl)cc2)n1-c1ccc(Cl)cc1 | -7% | 1.5 | -0.3 | -24%[15.4 µM] | -7 | -1.8%

Source: PubChem (National Center for Advancing Translational Sciences (NCATS))
